A1 inh: inducers of caspase activity in MEF A1-2A-BIM cells, primary screen, A1 inhibitor project, cell-based, CaspaseGlo luminescence | AID 2241, 2010 | 0.51% of 21,000 active | caspase activation, % (concentration not given with the values) | caspase-Glo luminescence, 3 h; percent of clofoctol signal, DMSO as zero;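 active = most replicate scores above 10, or exactly half above 10 with mean activity above 10; inconclusive = mean activity below 10 while half the replicates exceed 10; inactive = most replicate scores below 10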;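 note: effector caspase 3 and 7 activity cleaving a DEVD luciferin substrate; 50 nL library stock added to about 30 µL; numbers are from one replicate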
BJeLR viab HTS: BJeLR cell viability loss, primary screen, luminescence, CellTiterGlo ATP; BJeLR fibroblasts viability, 48 h; HRASV12, hTERT and SV40 LT/ST transformed; viability loss activity score, % (concentration not given with the values); 0.64% of 30,000 active; in the data active = viability loss activity score above about 50%; inconclusive = no clear call, values can overlap the other calls; inactive = below about 35%; about a fifth of its hits are not listed in these tables;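 note: higher score means fewer live cells and less ATP luminescence; stock transfer was 50 or 100 nL into about 30 µL; 0% = vehicle wells and 100% = a reference killing control; one replicate is shown; the record names a cut of 85%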
* hit, by the source's call; ? = inconclusive; . = no result given. Some of the compounds tested; count on the stated rates, not on these rows.

molecule	A1 inh	BJeLR viab HTS
C[C@@H]1CN([C@H](C)CO)C(=O)c2cc(NC(=O)CCN3CCOCC3)ccc2O[C@H]1CN(C)S(=O)(=O)c1ccc(F)cc1	0.3	3.8
C[C@H](CO)N1C[C@H](C)[C@@H](CN(C)C(=O)NC2CCCCC2)Oc2c(NC(=O)C3CC3)cccc2C1=O	.	-3.2
COc1ccc2c(c1)O[C@@H]1COc3cc4c(cc3[C@]1(O)C2=O)OCO4	-0.8	-7.1
COC(=O)CNC(=O)c1cn(CC(C)C)c(=O)c2cc(OC)c(OC)cc12	.	1.1
CNC[C@H]1Oc2ccc(NS(=O)(=O)c3ccc(Cl)cc3)cc2C(=O)N([C@H](C)CO)C[C@@H]1C	0.0	5.8
CC1CN(c2nc3ccccc3nc2SCC(=O)NCCc2ccccc2)CC(C)O1 (stereo not given)	0.5	1.9
Cc1ccc2cc3c(N)nn(C(=O)c4ccccc4F)c3nc2c1	-0.8	-6.3
C[C@@H]1CN([C@@H](C)CO)C(=O)c2cc(NC(=O)Nc3ccc(C(F)(F)F)cc3)ccc2O[C@@H]1CN(C)Cc1ccc(Oc2ccccc2)cc1	-0.1	3.8
Brc1cc(Br)c2ncc(-c3ccc4ccccc4n3)cc2c1	-0.2	1.9
O=C(O)c1cc(O)c2c(c1)C(=O)c1cc(O)cc(O)c1C2=O	-3.5	2.8
CC(C)c1ccc(NC(=O)NCCS(C)=O)cc1 (stereo not given)	.	-1.1
CNC(=O)Nc1cc(C(F)(F)F)cc(C(F)(F)F)c1	0.0	2.1
O=C(O)c1cccc(CN2CCN(c3ccccc3)CC2)c1	-0.3	0.2
COc1ccc(S(=O)(=O)Nc2ccc3c(c2)C(=O)N([C@@H](C)CO)C[C@@H](C)[C@H](CN(C)S(=O)(=O)c2ccc(C)cc2)O3)cc1	0.1	2.6
CC(C)NC(=O)N(C)C[C@H]1Oc2ccc(NC(=O)c3ccncc3)cc2C(=O)N([C@@H](C)CO)C[C@@H]1C	-0.3	-1.3

In another format: entries from further up
molecule: CNC(=O)Nc1cc(C(F)(F)F)cc(C(F)(F)F)c1
  A1 inh = 0.0
  BJeLR viab HTS = 2.1
molecule: O=C(O)c1cccc(CN2CCN(c3ccccc3)CC2)c1
  A1 inh = -0.3
  BJeLR viab HTS = 0.2

Arranged by value in A1 inh (highest first): some entries from above.
canonical_smiles | A1 inh
C[C@@H]1CN([C@H](C)CO)C(=O)c2cc(NC(=O)CCN3CCOCC3)ccc2O[C@H]1CN(C)S(=O)(=O)c1ccc(F)cc1 | 0.3
CNC[C@H]1Oc2ccc(NS(=O)(=O)c3ccc(Cl)cc3)cc2C(=O)N([C@H](C)CO)C[C@@H]1C | 0.0
Brc1cc(Br)c2ncc(-c3ccc4ccccc4n3)cc2c1 | -0.2

Next structures follow.
molecule	A1 inh	BJeLR viab HTS
COc1cc(Br)c(CN(CCc2ccc(O)cc2)C(=O)C(F)(F)F)cc1O	-1.1	6.2
CC1OC(OCC2(C)C=C3C4CCC5C6(C)CCC(O)C(C)(COC7OC(CO)C(O)C(O)C7O)C6CCC5(C)C4(C)CCC3(C(=O)O)CC2)C(O)C(O)C1O (stereo not given)	0.5	2.0
CCC(C)NC(=O)CN1C(=O)C(CC)Sc2ccccc21 (stereo not given)	-0.2	3.1
C[C@@H]1CN([C@H](C)CO)C(=O)c2cc(NS(=O)(=O)c3ccccc3)ccc2O[C@H]1CN(C)Cc1ccc(C(F)(F)F)cc1	0.4	0.8
CC(C)(C)Nc1cccccc1=NCc1ccccc1	0.7	2.4
Brc1ccc2nc(N3CCCC3)sc2c1	.	7.4
C[C@@H]1CN([C@H](C)CO)C(=O)c2cccc(NS(=O)(=O)c3ccccc3)c2O[C@H]1CN(C)S(=O)(=O)c1ccc(F)cc1	.	2.8
O=C(CCCn1c(=O)[nH]c2ccccc2c1=O)NCCc1ccccc1	0.8	-4.9
C[C@H]1CN([C@@H](C)CO)C(=O)c2cc(NC(=O)CCCCCC(=O)Nc3ccccc3N)ccc2O[C@@H]1CN(C)S(C)(=O)=O	.	-5.5
COc1ccc(CN(C)C[C@H]2Oc3ccc(NS(=O)(=O)c4ccccc4)cc3C(=O)N([C@H](C)CO)C[C@H]2C)cc1	-0.1	-1.9
C[C@H](CO)N1C[C@H](C)[C@H](CN(C)CC2CC2)Oc2ccc(NC(=O)CCC(F)(F)F)cc2C1=O	-0.1	-2.2
C[C@@H]1CN([C@@H](C)CO)C(=O)c2cc(NS(=O)(=O)c3ccc(Cl)cc3)ccc2O[C@H]1CN(C)C(=O)Nc1cccc2ccccc12	0.7	4.4
Cc1ccc(OCC(=O)Nc2ccc(N3CCOCC3)cc2)c(-n2nc3ccccc3n2)c1	-0.4	-4.0
C[C@@H]1CN([C@H](C)CO)C(=O)c2cccc(NS(=O)(=O)c3ccc(Cl)cc3)c2O[C@@H]1CN(C)C(=O)Nc1cccc2ccccc12	.	-0.2
C[C@H](CO)N1C[C@H](C)[C@@H](CN(C)Cc2ccc(Oc3ccccc3)cc2)Oc2ccc(NC(=O)Nc3ccc(F)cc3)cc2C1=O	-0.2	3.3
O=C(NCN1C(=O)C2C3C=CC(C3)C2C1=O)Nc1cccnc1 (stereo not given)	0.0	4.8
CC1=CC(C/C(C)=C/COc2ccc3ccc(=O)oc3c2)OC1=O (stereo not given)	0.0	3.1
COc1ccc(S(=O)(=O)Nc2ccc3c(c2)C(=O)N([C@@H](C)CO)C[C@@H](C)[C@H](CN(C)C(=O)Nc2ccc(F)cc2)O3)cc1	-0.5	0.2
OC(Cc1cccnc1)(c1ccccc1)c1ccccc1	0.0	3.6
C[C@@H]1CN([C@@H](C)CO)C(=O)c2cc(NC(=O)c3ccncc3)ccc2O[C@@H]1CN(C)S(=O)(=O)c1ccccc1	-0.2	-1.9
Cc1noc(C)c1S(=O)(=O)Nc1cccc2c1O[C@@H](CN(C)Cc1ccncc1)[C@@H](C)CN([C@H](C)CO)C2=O	.	-2.9
C[C@H]1CN([C@@H](C)CO)C(=O)c2cccc(NS(C)(=O)=O)c2O[C@H]1CN(C)CC1CC1	.	-0.7
Cc1ccc(S(=O)(=O)Nc2ccc3c(c2)C(=O)N([C@H](C)CO)C[C@H](C)[C@H](CN(C)C(=O)Nc2cccc4ccccc24)O3)cc1	-0.4	0.0
CNC[C@@H]1Oc2ccc(NC(=O)Cc3cn(C)c4ccccc34)cc2C(=O)N([C@@H](C)CO)C[C@@H]1C	0.4	2.6
CSC1=N/C(=C\c2ccc(Cl)cc2)C(=O)N1CCOc1ccc(Cl)cc1	-0.6	3.0
C[C@@H]1CN([C@H](C)CO)C(=O)c2cccc(NC(=O)c3ccncc3)c2O[C@@H]1CN(C)C(=O)Nc1ccc(F)cc1	.	-5.8
O=C1/C(=C/c2ccc3ccccc3c2)COc2ccccc21	-0.6	5.6
CC(C)NC(=O)Nc1cccc2c1O[C@@H](CN(C)S(=O)(=O)c1cccs1)[C@@H](C)CN([C@@H](C)CO)C2=O	.	11
O=C1C2CC=CCC2C(=O)N1c1ccc(Cl)cc1 (stereo not given)	1.0	11
Cc1ccc(S(=O)(=O)N(CC(=O)N2CCCCCC2)c2ccc(C)c(Cl)c2)cc1	-0.3	-1.0

New compounds follow:
Below each SMILES: A1 inh, BJeLR viab HTS
CCC1CCCN1Cn1cnc2c([nH]c3ccc(C)cc32)c1=O (stereo not given)
  0.6, -2.1
C[C@H](CO)N1C[C@H](C)[C@H](CN(C)Cc2ccncc2)Oc2c(NC(=O)Nc3ccc4c(c3)OCO4)cccc2C1=O
  ., 3.0
C=CCn1cnc2sc3c(c2c1=O)CCC(C)C3 (stereo not given)
  -1.0, 1.0
CCN1C(=O)C=CC1=O
  3.3, 1.7
COc1ccc(C(=O)NC(=S)Nc2ccc3[nH]c(=O)[nH]c3c2)cc1Br
  ., -2.0
CC(C)NC(=O)N(C)C[C@H]1Oc2ccc(NC(=O)Nc3ccc(C(F)(F)F)cc3)cc2C(=O)N([C@@H](C)CO)C[C@H]1C
  -0.2, 0.6
Cc1cc(=O)[nH]c(SCC(=O)c2ccc(F)cc2)n1
  0.2, -1.7
CC(C)(C)n1c(O)c(/C=C2/C=c3ccccc3=N2)c(=O)[nH]c1=O
  1.1, 3.8
Cc1c(C(=O)NC2CCN(Cc3ccccc3)CC2)cnn1-c1ccc(F)cc1
  -0.2, 5.7
Cc1ccc(S(=O)(=O)N(C)C[C@H]2Oc3c(NC(=O)Nc4ccc(F)cc4)cccc3C(=O)N([C@H](C)CO)C[C@H]2C)cc1
  ., 4.6
CNC[C@@H]1Oc2ccc(NC(=O)c3ccncc3)cc2C(=O)N([C@H](C)CO)C[C@@H]1C
  0.6, 0.6
Cc1cccc(NC(=O)CN2C(=O)CC(C)S(=O)(=O)c3ccccc32)c1 (stereo not given)
  0.4, 2.4
Cc1nn(C)c(C)c1CNC(=O)c1ccc(N2CCOCC2)nc1
  0.3, -3.9
CNC[C@@H]1Oc2ccc(NC(=O)C3CC3)cc2C(=O)N([C@H](C)CO)C[C@@H]1C
  0.5, -0.4
CCN(C(=O)CSc1nc2nc(C)c(Cc3cc(C)ccc3C)c(C)n2n1)c1cccc(C)c1
  -0.3, -1.6
Cc1noc(C)c1S(=O)(=O)Nc1ccc2c(c1)C(=O)N([C@@H](C)CO)C[C@@H](C)[C@H](CN(C)S(=O)(=O)c1ccc(Cl)cc1)O2
  -0.3, 2.5
Cc1ccccc1OCC(=O)Nc1cccc(-c2nnc(-c3ccco3)o2)c1
  -1.0, -0.2
Cc1ccc2oc(=O)c3cnn(CC(=O)NCC4(c5ccccc5)CCCC4)c3c2c1
  ., -3.8
C[C@H](CO)N1C[C@H](C)[C@H](CN(C)C(=O)Nc2ccccc2)Oc2c(NS(=O)(=O)c3cccs3)cccc2C1=O
  ., 4.0
O=S(=O)(/C=C/c1ccccc1)Nc1ccccc1
  -0.3, 18

A second format for some results above:
CC1=CC(C/C(C)=C/COc2ccc3ccc(=O)oc3c2)OC1=O (stereo not given)
  A1 inh: 0.0
  BJeLR viab HTS: 3.1

COc1ccc(S(=O)(=O)Nc2ccc3c(c2)C(=O)N([C@@H](C)CO)C[C@@H](C)[C@H](CN(C)C(=O)Nc2ccc(F)cc2)O3)cc1
  A1 inh: -0.5
  BJeLR viab HTS: 0.2

Later entries
Below each SMILES: A1 inh, BJeLR viab HTS
C[C@H]1CN([C@@H](C)CO)C(=O)c2cccc(NC(=O)C3CCOCC3)c2O[C@H]1CN(C)Cc1ccc(C(=O)O)cc1
  ., 0.7
COC(=O)c1sc(=S)n(-c2ccc(Cl)cc2)c1C
  -1.1, 4.4
Cc1cc(C)n(-c2nc3cc(Cl)c(Cl)cc3n3c(C)nnc23)n1
  ., 4.5
COc1ccc(NC(=O)Nc2ccc3c(c2)C(=O)N([C@H](C)CO)C[C@@H](C)[C@H](CN(C)C)O3)cc1
  -0.3, 2.9
CCSc1nnc(NC(=O)C2CC=CCC2C(=O)O)s1 (stereo not given)
  -2.4, 1.1
Cc1cc(C(=O)Nc2cccc3c2O[C@H](CN(C)Cc2ccc(C(F)(F)F)cc2)[C@H](C)CN([C@@H](C)CO)C3=O)n(C)n1
  ., -4.5
CCC(C)c1ccc(O)c(NC(=O)c2cccnc2)c1 (stereo not given)
  ., -6.3
O=c1c(Cc2ccc(Br)cc2)csc2ccccc12
  -4.1, -4.2
Brc1ccc(/C=N/n2cnnc2SCc2ccccc2)cc1
  0.7, -0.7
Cc1ccc2c(c1)c1c(n2C)C(C(N)=O)CCC1 (stereo not given)
  0.6, -1.4
Cc1cc(C)c(C#N)c(SCc2ccccc2)n1
  0.3, -9.9
C[C@H]1CN([C@@H](C)CO)C(=O)c2cccc(NS(=O)(=O)c3cccs3)c2O[C@@H]1CN(C)CC1CCCCC1
  ., 2.0
Cc1c(C(=O)Nc2ccccc2N2CCN(C)CC2)sc2nc3n(c(=O)c12)CCCCC3
  1.0, 11
COc1c(CC=C(C)C)cc(C2CC(=O)c3c(O)cc(O)cc3O2)cc1CC=C(C)C (stereo not given)
  4.1, 0.2
CC(C)CN1CC(C(=O)O)CC1=O (stereo not given)
  0.9, 0.7
Cc1cccc(N(C)C(=O)c2ccc3c(=O)n4c(nc3c2)CCCCC4)c1
  0.2, -6.7
C[C@@H]1CN([C@H](C)CO)C(=O)c2cc(NC(=O)CCC(F)(F)F)ccc2O[C@@H]1CN(C)Cc1ccc(C(F)(F)F)cc1
  -1.3, -1.0
Cc1c(OC(=O)c2ccco2)ccc2c3c(c(=O)oc12)CCC3
  0.4, -3.5
COc1ccc(S(=O)(=O)N(C)C[C@H]2Oc3c(NS(=O)(=O)c4cccs4)cccc3C(=O)N([C@@H](C)CO)C[C@H]2C)cc1
  ., 1.0
Cn1c(C(=O)N2COCC2(C)C)cc2c(=O)n3ccccc3nc21
  0.0, 7.8
COCCn1c(=O)[nH]c2cc(C(=O)OC)ccc2c1=O
  ., 1.1
CCOC(=O)c1noc(C)c1-c1csc(COc2cc(Cl)cc(Cl)c2)n1
  0.5, -2.1
C[C@@H]1CN([C@@H](C)CO)C(=O)c2cccc(NC(=O)c3nc4ccccc4s3)c2O[C@H]1CN(C)S(=O)(=O)c1ccccc1
  ., 12
CNC[C@H]1Oc2ccc(NC(=O)CCN3CCOCC3)cc2C(=O)N([C@H](C)CO)C[C@H]1C
  0.4, ?
C[C@@H]1CN([C@H](C)CO)C(=O)c2cccc(NS(=O)(=O)c3ccccc3)c2O[C@@H]1CN(C)Cc1ccccc1
  ., 1.7
C[C@H]1CN([C@@H](C)CO)C(=O)c2cccc(NS(=O)(=O)c3ccccc3)c2O[C@@H]1CN(C)Cc1ccc(C(F)(F)F)cc1
  ., -2.5
